Screens deposited in PubChem by National Center for Advancing Translational Sciences (NCATS).
EPAC2 antag: validation of human EPAC2 antagonists | EPAC2 Rap1B BODIPY-GDP exchange, fluorescence | Potency, µM (series often up to 112 µM), without a hit: top-dose activity, negative = inhibition, hits mostly inhibitors | AID 1645886 | Q8WZA2 | 16,000 compounds, 1.7% hits; active = well fitted inhibition curve with a large enough effect; inconclusive = small, poorly fitted or top-dose-only effect; inactive = no such curve, though single readings can be large or run the other way;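 also: 100% = activation by cAMP agonist control; nearly all actives have a fitted effect of over 40% in size; the record reuses the description of the EPAC1 agonist screen; inactives centre near -10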
Target sequence (Q8WZA2 whole entry, looked up): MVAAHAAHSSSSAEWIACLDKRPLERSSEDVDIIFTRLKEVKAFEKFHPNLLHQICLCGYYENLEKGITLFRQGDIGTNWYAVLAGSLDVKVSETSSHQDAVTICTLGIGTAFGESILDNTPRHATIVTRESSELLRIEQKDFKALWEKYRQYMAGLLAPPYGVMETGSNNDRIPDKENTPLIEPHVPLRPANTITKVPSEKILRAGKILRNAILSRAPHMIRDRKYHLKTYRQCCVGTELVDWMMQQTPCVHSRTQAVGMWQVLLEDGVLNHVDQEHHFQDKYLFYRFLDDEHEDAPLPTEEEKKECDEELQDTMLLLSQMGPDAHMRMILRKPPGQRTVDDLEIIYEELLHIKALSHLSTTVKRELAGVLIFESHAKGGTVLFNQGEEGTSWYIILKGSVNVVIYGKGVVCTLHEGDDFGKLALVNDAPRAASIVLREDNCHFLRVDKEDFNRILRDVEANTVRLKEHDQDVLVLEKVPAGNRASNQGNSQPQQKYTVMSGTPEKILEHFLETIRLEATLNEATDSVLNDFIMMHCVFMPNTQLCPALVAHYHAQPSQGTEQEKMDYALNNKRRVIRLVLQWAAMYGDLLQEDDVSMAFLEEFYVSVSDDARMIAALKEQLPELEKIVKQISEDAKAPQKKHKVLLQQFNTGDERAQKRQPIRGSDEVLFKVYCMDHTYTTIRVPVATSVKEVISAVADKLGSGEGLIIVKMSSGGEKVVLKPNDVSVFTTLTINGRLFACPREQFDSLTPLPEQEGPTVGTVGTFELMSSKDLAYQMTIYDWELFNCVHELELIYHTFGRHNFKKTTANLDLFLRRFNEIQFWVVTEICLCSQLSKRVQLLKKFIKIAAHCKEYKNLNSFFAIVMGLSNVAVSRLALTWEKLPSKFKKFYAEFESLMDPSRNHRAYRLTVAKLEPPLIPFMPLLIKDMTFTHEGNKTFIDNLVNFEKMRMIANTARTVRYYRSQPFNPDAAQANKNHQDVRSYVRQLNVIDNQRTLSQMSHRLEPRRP
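Normalized against a 6.5 mM cAMP agonist control, compounds were tested on 100 nM EPAC2 exchanging Rap1B-bound BODIPY-GDP (250 nM) for 50 uM GDP. Fluorescence drop (ex 480, em 540 nm) was tracked at room temperature over 30 min at 5-min intervals.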
The depositor's hits bear a star; u = inconclusive; & = joins results of further samples; [ ] = dose if it differs, or a comment. Potency is read from the fitted curve at half-maximal effect.

SMILES	EPAC2 antag
CC(=O)N1CCC2(CC1)CN(c1cccc(-c3ccccc3)c1)C2	u
CC(C)C[C@@H](CO)N1CCN(CCc2ccccc2)CCC1=O	-10%
O=C(CO)[C@@H](O)[C@H](O)[C@@H](O)CO	9%
Cc1c(CCO)sc[n+]1CC(=O)c1ccc(F)cc1	u
COc1ccc2c(=O)c(CC(=O)O)coc2c1	-16%
COc1ccc(NC(=O)[C@@H]2CC=C[C@@H]3CCN(C4CC4)C(=O)[C@@H]32)cc1	13%
COc1cccc(Cn2c(=O)cnc3cnc(Nc4ccccc4)nc32)c1	2%
CN(C)C(=O)c1ccc(-c2cc(NCc3cccs3)ncn2)cc1	-19%
COC(=O)N1CCC2(CCCN(Cc3ccccc3OC)C2)CC1	-12%
COc1cccc(Cn2c(=O)c(-c3ccc(Cl)cc3)nc3cnc(N4CCN(C)CC4)nc32)c1	-3%
Cc1cc([C@](C)(N)C(=O)O)ccc1P(=O)(O)O	-20%
O=C(c1cnccn1)N1CCC[C@@]2(CCN(c3cccc(-c4ccccc4)c3)C2)C1	u
NCCSSCCN	10%&-10%
Cc1oc(-c2ccccc2NC(=O)C2CCC2)nc1CNC(=O)c1ccccn1	-16%
C=C[C@@H]1c2ccccc2N(S(=O)(=O)c2ccc(C)cc2)[C@H](c2ccc(C(F)(F)F)cc2)C1(C#N)C#N	19%
O=C(N[C@@H]1c2ccccc2C2(CCN(C(=O)c3cc4ccccc4oc3=O)CC2)[C@H]1O)c1cccnc1	-27%
COc1ccc(CN([C@H](C)CO)S(=O)(=O)N(Cc2ccccc2)[C@H](CO)C(C)C)cc1	u
CC(C)Cc1nc2cc(NS(=O)(=O)N(C)C)cc(C(=O)N3CCc4ccccc4C3)c2n1C	4%
COc1ccc(CN2CCOc3ccc(CN4CCC(Oc5cccnc5)CC4)cc3C2)cc1C	u
C/C=C/c1ccc2oc(-c3ccc(O)cc3)c(C)c2c1	u
O=c1c(-c2cccs2)nc2cncnc2n1Cc1ccccc1	-10%
COc1cc(C)c(CN2CCOc3ccc(C(O)c4cccnc4)cc3C2)cc1C (stereo not given)	-22%
CC(C)c1c(O)ccc2c1CCC1C(C)(C)CCC[C@@]21C (stereo not given in full)	u
Cc1ccc(-c2nn(C(C)(C)C)c3ncnc(N)c23)cc1	-10%[151 µM]
CSc1nc(N)c2ncn([C@@H]3O[C@H](COP(=O)(O)OP(=O)(O)OP(=O)(O)O)[C@@H](O)[C@H]3O)c2n1	-7%&-14%

Grouped by structure: those above containing a carbonyl joined to an NH by a bond outside any ring.
SMILES	EPAC2 antag
COc1ccc(NC(=O)[C@@H]2CC=C[C@@H]3CCN(C4CC4)C(=O)[C@@H]32)cc1	13%
Cc1oc(-c2ccccc2NC(=O)C2CCC2)nc1CNC(=O)c1ccccn1	-16%
O=C(N[C@@H]1c2ccccc2C2(CCN(C(=O)c3cc4ccccc4oc3=O)CC2)[C@H]1O)c1cccnc1	-27%

Single entries from above.
Result of `COc1ccc(NC(=O)[C@@H]2CC=C[C@@H]3CCN(C4CC4)C(=O)[C@@H]32)cc1` under EPAC2 antag: 13%
Result of `NCCSSCCN` under EPAC2 antag: 10%&-10%
Result of `COc1cc(C)c(CN2CCOc3ccc(C(O)c4cccnc4)cc3C2)cc1C` (stereo not given) under EPAC2 antag: -22%

Returning to the listing, repeating the two entries before the break.
SMILES	EPAC2 antag
Cc1ccc(-c2nn(C(C)(C)C)c3ncnc(N)c23)cc1	-10%[151 µM]
CSc1nc(N)c2ncn([C@@H]3O[C@H](COP(=O)(O)OP(=O)(O)OP(=O)(O)O)[C@@H](O)[C@H]3O)c2n1	-7%&-14%
CCC1CN(CC(=O)NCc2cc(C)n(C)n2)Cc2cc(OC)ccc2O1 (stereo not given)	-15%
CN[C@H]1CC[C@@H](c2ccc(Cl)c(Cl)c2)c2ccccc21	-8%&-19%
NC(=O)NO	2%&-13%
C(=C\c1ccnc2ccccc12)/c1ccc2ccccc2n1	u
C[C@]12CC[C@@H]3c4ccc(O)cc4CC[C@H]3[C@@H]1CC[C@@H]2O	3%
COc1cccc(CN2c3ccc(Br)cc3C(=O)CS2(=O)=O)c1	-2%
CC(=O)c1ccc(C(=O)N2CCc3c(cnc(C)c3CNC(=O)c3ccc4c(c3)OCO4)C2)s1	-26%
COc1ccc(C(=O)c2ccccc2)c(O)c1O	-19%
COc1ccc(-c2cc(=O)c3c(O)c(OC)c(OC)c(OC)c3o2)cc1	-3%
CCC1CN(CCNC(=O)c2cccc3nccnc23)Cc2cc(OC)ccc2O1 (stereo not given)	-2%
O=c1c(O)c(-c2ccccc2)oc2cc(O)cc(O)c12	u
COc1ccc2ccccc2c1CN1CCOc2ccc(CN3CCN(CCO)CC3)cc2C1	-27%
CC[C@@]1(c2ccccc2)NC(=O)N(C)C1=O	4%
O=C(Oc1ccccc1)N1CCC2(CC1)CCN(c1ncccn1)CC2	-25%
C[C@]12CCC(=O)C=C1CC[C@@H]1[C@@H]2C(=O)C[C@@]2(C)[C@H]1CC[C@]2(O)C(=O)CO	-9%&-17%&-5%
CN(C)c1ncc2nc(CCc3ccccc3)c(=O)n(C[C@H]3CCCO3)c2n1	-24%
COCC(=O)N1CCC2(CCN(Cc3nccs3)CC2)CC1	-5%
Cc1cnc2c(C)cccc2c1C	1%
O=NN(CCCl)C(=O)NC1CCCCC1	10%
c1nc(N2CCNCC2)c2cc(-c3ccoc3)ccc2n1	-20%
O=C(O)C[C@H]1c2cc(F)ccc2S(=O)(=O)N1C1CCCCC1	4%
Cc1cnc(C)c(-c2cccc3c2OC(CNC(=O)/C=C/c2ccc(F)c(F)c2)C3)n1 (stereo not given)	-8%
CC(C)=CCC/C(C)=C/CC/C(C)=C/CC/C(C)=C/CC/C(C)=C/CC/C(C)=C/CC/C(C)=C/CC/C(C)=C/CC/C(C)=C/CO	-21%
CC(C)C[C@H](NC(=O)[C@H](Cc1ccccc1)NC(=O)CNC(=O)CNC(=O)[C@@H](N)Cc1ccc(O)cc1)C(=O)N[C@@H](CCCN=C(N)N)C(=O)N[C@@H](CCCN=C(N)N)C(=O)N[C@@H](CCC(N)=O)C(=O)N[C@@H](Cc1ccccc1)C(=O)N[C@@H](CCCCN)C(=O)N[C@H](C(=O)N[C@H](C(=O)N[C@H](C(=O)O)[C@@H](C)O)C(C)C)C(C)C	-9%[11.4 µM]
CCC(=O)OC1CCC2C3CCc4cc(O)ccc4C3CC[C@]12C (stereo not given in full)	40µM*
COc1ccc(-c2nc3cnc(Oc4cccc(Cl)c4)nc3n(C[C@H]3CCCO3)c2=O)cc1	8%
C[C@@H](CSc1ccc(Br)cc1)CN1CC[C@H](O)CCC1=O	7%
FC(F)(F)c1ccccc1-c1nc(NCc2cccs2)c2ccccc2n1	-29%
CN[C@@H]1[C@@H](O[C@H]2O[C@H](CO)[C@@H](N)[C@H](O)[C@H]2O)O[C@H]2C[C@@H](N)[C@@H](O[C@H]3[C@H](O)[C@@H](O)[C@H](N)C[C@@H]3N)O[C@@H]2[C@@H]1O	2%[56.6 µM]
Cc1ncoc1C(=O)N1CCOc2ccc(CN3CCC(Oc4cccnc4)CC3)cc2C1	-7%

Compounds shown so far containing a furan ring, fused or not (2):
SMILES	EPAC2 antag
C/C=C/c1ccc2oc(-c3ccc(O)cc3)c(C)c2c1	u
c1nc(N2CCNCC2)c2cc(-c3ccoc3)ccc2n1	-20%

An excerpt. The share of hits here may be higher or lower than overall.
